Assay outcomes (PubChem)
NPYLR7 agonist – mosquito NPYLR7 agonism; HEK293T NPYLR7/Galpha15, GCaMP6s calcium fluorescence; activation, % at 10 µM; 270,000 tested, 0.15% active; in the data active = activation above about 40%;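 note: 0% = vehicle and 100% = reference agonist at the receptor; some compounds past the cut are filed as inactive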
NPYLR7 agonist max-min – also measured in NPYLR7 agonist; calls as there; activation, %; measured here: Max-Min RFU normalised activation; some inactives read as strong as hits;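 span of the calcium signal over five minutes; 0% = vehicle and 100% = native peptide agonist; compound fluorescence can raise it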
* marks the source's active call; other numbers are inactive results; & = joins results of further samples. This is a subset; rates above refer to the full screens.

[1] COc1cc(C=C(C#N)C#N)ccc1OC(=O)c1ccccc1Br
[2] Cc1ccccc1C1CC(=O)c2cnc(N3CCOCC3)nc2C1 (configuration not stated)
[3] CC1(C)CC(=O)C=C(C(=O)N2CCCC(N3CCN(c4ccccc4F)CC3)C2)O1 (configuration not stated)
[4] CCCCc1nc2sc3c(NCCN4CCOCC4)ncnc3c2c2c1COC(C)(C)C2
[5] O=C(OCc1nc(C(=O)NCCOc2ccccc2Cl)cs1)c1ccccc1
[6] COC1=CC(=O)C[C@@H](C)[C@]12Oc1c(Cl)c(OC)cc(OC)c1C2=O

Screen / compound no. | 1 | 2 | 3 | 4 | 5 | 6
NPYLR7 agonist | -8 | 1 | 7 | 6 | -2 | -8&-4&0
NPYLR7 agonist max-min | -11 | 1 | 4 | 3 | -8 | -18&-9&-4

[7] Cc1ccsc1CN(Cc1ccccc1)C(=O)CN(C(=O)Nc1ccccc1C(F)(F)F)C(C)C
[8] O=C(CCc1cccnc1)Nc1cccc(Br)c1
[9] CCc1nnc(CN2CCC(C3CCCCCN3S(=O)(=O)c3ccccc3)CC2)o1 (configuration not stated)
[10] O=C(CCc1ccc2c(c1)OCO2)NC1CCc2[nH]c3ccc(Br)cc3c2C1 (configuration not stated)
[11] CCN(Cc1noc(C2CC2)n1)C(=O)c1ccc2c(c1)OCCN2C
[12] C#CCN[C@@H]1CCc2ccccc21

Screen / compound no. | 7 | 8 | 9 | 10 | 11 | 12
NPYLR7 agonist | -10 | 5 | 6 | 27 | -1 | -8
NPYLR7 agonist max-min | -10 | 5 | 5 | 15 | -9 | -2

[13] COc1ccc(F)c(-c2nc(CN3CCCOCC3)c(C)o2)c1
[14] CN(CC1CCN(CCc2ccc(Cl)cc2)CC1)C(=O)c1ccc(-n2cccn2)cc1
[15] O=C(O)/C=C/c1ccc(S(=O)(=O)Nc2ccc(N3CCOCC3)nc2)cc1
[16] N#Cc1c(SCc2ccccc2)nc2c(c1-c1ccc(O)cc1)CCCC2
[17] Nc1ccc(N2CCOCC2)c(S(=O)(=O)Nc2cc(Cl)ccc2Cl)c1
[18] Cc1ccc(/C=C/C(=O)Nc2ccc(C)c(S(N)(=O)=O)c2)c(Br)c1

Screen / compound no. | 13 | 14 | 15 | 16 | 17 | 18
NPYLR7 agonist | 2 | 14 | 8 | -4 | -9 | -1
NPYLR7 agonist max-min | -3 | 7 | 6 | -9 | -13 | 0

[19] COc1ccc(Nc2nc(N3CCN(c4cccc(Cl)c4)CC3)nc3nccnc23)cc1
[20] CC1=NC2=C(C(=O)CCC2)C(c2cccc(Cl)c2)C1C(=O)OCCc1ccccc1 (configuration not stated)
[21] CC(C)CCC(=O)N(c1cccc(F)c1)C1CCOCC1
[22] COCCCN(CC(=O)N(CCc1c[nH]c2ccccc12)Cc1ccc(C(C)(C)C)cc1)CC(C)O (configuration not stated)
[23] CC(C)NC(=O)c1ccccc1N1CCC(N)CC1
[24] CCN(C(=O)c1ccc(F)c(NC(C)=O)c1)S(=O)(=O)c1ccc(C)cc1

Screen / compound no. | 19 | 20 | 21 | 22 | 23 | 24
NPYLR7 agonist | 2 | -1 | 10 | -1 | -7 | 1
NPYLR7 agonist max-min | 4 | -5 | 6 | 6 | 4 | 0

[25] COCCNC(=S)NN=Cc1cccs1
[26] CC1CN(C(C)C(=O)Nc2ccc(Cl)cc2C(F)(F)F)CCO1 (configuration not stated)
[27] CSc1sc(C(C)=O)c(N)c1-c1ccc(Cl)cc1
[28] O=C(c1nnc2n1CCCC2)N1CCc2c(ncnc2N2CCOCC2)C1
[29] Cc1cn([C@H]2C[C@H](N=[N+]=[N-])[C@@H](CO)O2)c(=O)[nH]c1=O
[30] N#Cc1cnn(C(=O)COc2ccc(C3SCCCS3)cc2)c1N

Screen / compound no. | 25 | 26 | 27 | 28 | 29 | 30
NPYLR7 agonist | 20 | 5 | -4 | 3 | -9&-2&-3 | 6
NPYLR7 agonist max-min | 10 | 0 | -4 | 1 | -14&-7&-6 | 4

[31] O=C(Cc1ccc2c(c1)OCCO2)NC1CCSc2ccccc21 (configuration not stated)
[32] CC1=C2C[C@@]3(C)C(CCC[C@@H]3C)C(O)C2(O)OC1=O (some centres not stated)
[33] COC(=O)c1cccc(C(=O)N2CCCC(Nc3ccc(C(C)C)cc3)C2)c1 (configuration not stated)
[34] CCCCn1c(Br)nc2c1c(=O)n(C)c(=O)n2C
[35] O=C(NCCc1cccc(F)c1)c1ccc2nc(-c3ccccc3)c(-c3ccccc3)nc2c1
[36] CC(C)NC(=O)N(Cc1ccccc1)C(C)c1ccccn1 (configuration not stated)

Screen / compound no. | 31 | 32 | 33 | 34 | 35 | 36
NPYLR7 agonist | 0 | -6 | 25 | -5 | -10 | -12
NPYLR7 agonist max-min | -1 | -11 | 18 | -5 | -11 | -12

[37] CCN(CC)CCCC(C)NC(=O)c1cc(-c2ccco2)nn1-c1cccc(C)c1 (configuration not stated)
[38] COc1ccc(NC(=O)N2CCc3cc(OC)c(OC)cc3C2c2ccccc2Cl)cc1OC (configuration not stated)
[39] COCCCn1c(-c2ccccc2)csc1=Nc1ccccc1
[40] O=C(NCc1ccc2c(c1)OCO2)c1cccnc1N1CCN(C(=O)c2cccs2)CC1
[41] COc1ccccc1-c1ccc2c(c1)C(C)(Cc1ccc(C(=O)c3ccccc3)cc1)C(=O)N2 (configuration not stated)
[42] COCCNC(=O)CSc1nc2c(-c3ccccc3)c(C)nn2c(=O)[nH]1

Screen / compound no. | 37 | 38 | 39 | 40 | 41 | 42
NPYLR7 agonist | -3 | 18 | -4 | -6 | 2 | 10
NPYLR7 agonist max-min | 0 | 6 | -8 | 10 | 1 | -1

[43] Cc1cccn2cc(C(=O)N3CCC(c4ccnc(-c5ccncc5)c4)C3)nc12 (configuration not stated)
[44] CC(=O)Nc1cccc(-n2c(C3CC3)n[nH]c2=S)c1
[45] Cc1nn(CC(=O)Nc2ccc3c(c2)OCCO3)c(=O)c2c1cnn2-c1ccccc1
[46] COc1ccc(OCCNC(=O)c2cc(-c3cc(OC)c(OC)c(OC)c3)nc3ccccc23)cc1
[47] COc1cc2c(c(OC)c1)C(=O)OC2
[48] Cc1cc(-n2nc(C)cc2C)nc(-n2nc(C)cc2C)n1

Screen / compound no. | 43 | 44 | 45 | 46 | 47 | 48
NPYLR7 agonist | 0 | 2 | 8 | 27 | -7 | 11
NPYLR7 agonist max-min | 1 | 1 | 7 | 14 | -9 | 4

[49] COc1ccccc1N=Nc1c(C)[nH]n(-c2nc(-c3ccccc3)cs2)c1=O
[50] Cc1ccc(Nc2cc(-c3cccc4oc5ccccc5c34)ncn2)cc1NS(C)(=O)=O
[51] Cn1ncc(Cl)c1C(=O)NC(=S)NNS(=O)(=O)c1ccccc1
[52] COCc1ncc(CN2CCNC(C(=O)NC3CC3)C2)cn1 (configuration not stated)
[53] CCOC(=O)C1CCCCN1CC(=O)N1N=C(c2ccccc2F)CC1c1ccccc1OC (configuration not stated)
[54] Cc1[nH]n(-c2nc(-c3cccc([N+](=O)[O-])c3)cs2)c(=O)c1N=Nc1ccccc1

Screen / compound no. | 49 | 50 | 51 | 52 | 53 | 54
NPYLR7 agonist | -4 | 11 | -6 | 11 | -7 | 3
NPYLR7 agonist max-min | -8 | 5 | -11 | 9 | -9 | -1

Some of these compounds in order of molecular weight, lowest first:
[47] COc1cc2c(c(OC)c1)C(=O)OC2
[48] Cc1cc(-n2nc(C)cc2C)nc(-n2nc(C)cc2C)n1
[49] COc1ccccc1N=Nc1c(C)[nH]n(-c2nc(-c3ccccc3)cs2)c1=O
[54] Cc1[nH]n(-c2nc(-c3cccc([N+](=O)[O-])c3)cs2)c(=O)c1N=Nc1ccccc1
[53] CCOC(=O)C1CCCCN1CC(=O)N1N=C(c2ccccc2F)CC1c1ccccc1OC (configuration not stated)

Screen / compound no. | 47 | 48 | 49 | 54 | 53
NPYLR7 agonist | -7 | 11 | -4 | 3 | -7
NPYLR7 agonist max-min | -9 | 4 | -8 | -1 | -9

Next compounds.
[55] CCCCCCN(C(=O)Nc1ccccc1OC)C(C)c1nc2ccccc2c(=O)n1-c1ccccc1 (configuration not stated)
[56] COc1ccc(/C=C/CN2CCC3(CC2)C(=O)N(C)C(=O)N3CC(C)C)cc1
[57] CSc1ccc(COc2coc(CN3CCN(C(=O)C(F)(F)C(F)(F)C(F)(F)F)CC3)cc2=O)cc1
[58] O=C(c1ccc(-n2cncn2)c([N+](=O)[O-])c1)N1CCCCC1
[59] CCNC(=O)C(C)(C)n1cc(-c2ccc3c(c2)OCCO3)cn1
[60] C=CCN1CCN(c2nc3c(c(=O)[nH]c(=O)n3C)n2CCc2ccccc2)CC1

Screen / compound no. | 55 | 56 | 57 | 58 | 59 | 60
NPYLR7 agonist | -5 | 9 | 25 | -8 | 4 | -4
NPYLR7 agonist max-min | 0 | -4 | 6 | -11 | -4 | 6

[61] O=C(c1ccc(S(=O)(=O)C(F)F)cc1)N1CCCC1c1ccc(O)cc1 (configuration not stated)
[62] Cc1ccc2c(=O)c(C(=O)N3CCCC3)cn(CC(=O)Nc3ccc(F)cc3)c2n1
[63] CCN1CCN(C(=O)c2coc(COc3ccc4c(c3)OCO4)n2)C(C)C1=O (configuration not stated)
[64] CCn1cc(C(=O)O)c(=O)c2cc(F)c(N3CCNCC3)cc21
[65] CCCCc1ncc(CN2CCCC(CNC(=O)c3cc(OC)cc(OC)c3)C2)[nH]1 (configuration not stated)
[66] O=C1OC(/C=C\c2cccc([N+](=O)[O-])c2)=NC/1=C/c1ccc(F)cc1

Screen / compound no. | 61 | 62 | 63 | 64 | 65 | 66
NPYLR7 agonist | 3 | 8 | 8 | -3&3 | 6 | 1
NPYLR7 agonist max-min | -2 | 4 | 3 | -9&-3 | 2 | -5

[67] NC(COCc1ccccc1)c1csc(Nc2cc(Oc3ccccc3)ncn2)n1 (configuration not stated)
[68] C=CCc1c(C)c(C#N)c2nc3ccccc3n2c1NCCOC
[69] Cc1nc(/C=C/C(=O)NCc2noc(-c3ccccc3)n2)cs1
[70] O=c1[nH]nc(SCc2ccccc2)c(=S)[nH]1
[71] CNS(=O)(=O)c1ccc(NCCOc2ccccc2F)c([N+](=O)[O-])c1
[72] COCc1nnc(C(=O)N2CCC(n3nc(C)cc3C)C2)o1 (configuration not stated)

Screen / compound no. | 67 | 68 | 69 | 70 | 71 | 72
NPYLR7 agonist | -6 | 0 | 27 | -2 | 0 | 7
NPYLR7 agonist max-min | -10 | 1 | 22 | -4 | -2 | 4

[73] COc1cc(OC)c(OC)cc1CNC(=O)C1CCN(c2ccc3nnc(C(F)(F)F)n3n2)CC1
[74] CCOC(=O)c1ccccc1NC(=O)N1CCC(Cc2ccc3c(c2)OCO3)CC1
[75] CCOc1cc(C2C(C(=O)OCc3ccccc3)=C(C)NC(C)=C2C(=O)OCc2ccccc2)ccc1O
[76] CCOC(=O)C1(Cc2cccc(C(F)(F)F)c2)CCN(C(=O)c2cccnc2OC)CC1
[77] CC(/C=C/c1ccccc1)=N/NC(=O)C1CC1c1ccccc1 (configuration not stated)
[78] O=C(CC(NCCCO)C(=O)O)Nc1ccc(Nc2ccccc2)cc1 (configuration not stated)

Screen / compound no. | 73 | 74 | 75 | 76 | 77 | 78
NPYLR7 agonist | -1 | 2 | -6 | 2 | 7 | 16
NPYLR7 agonist max-min | 24 | 9 | -11 | -1 | 5 | 7

[79] CC(C)CN(CC(=O)Nc1nc(CC(=O)NCc2ccc3c(c2)OCO3)cs1)C(=O)c1ccc(Cl)cc1
[80] Cc1ccc2oc(C(=O)NCC[C@@H]3C[C@@H]4C=C[C@H]3C4)c(C)c2c1
[81] C=CCn1c(CCNC(=O)C(C)(C)C)nc2ccccc21
[82] Cc1nn(C(C)C(=O)NCc2cccs2)c(=O)c2cc3sccc3n12 (configuration not stated)
[83] Cc1cc(-c2nn(-c3ccccc3F)cc2CN(C)CC2COCCO2)c(C)s1 (configuration not stated)
[84] CN(C(=O)CN1CCCC1c1ccccc1)C1(C#N)CCCCC1 (configuration not stated)

Screen / compound no. | 79 | 80 | 81 | 82 | 83 | 84
NPYLR7 agonist | 14 | 3 | -5 | 6 | 2 | 9
NPYLR7 agonist max-min | 12 | 0 | 1 | 7 | 1 | 3

[85] CCCCCN(CC(=O)N1CCc2sccc2C1c1ccccc1C)S(=O)(=O)c1ccc(OC)cc1 (configuration not stated)
[86] O=c1cc(CSc2ccc3c(c2)OCCCO3)nc2sc3c(n12)CCCC3
[87] CC(C)(C)c1ccc(O)c(-n2cnnc2)c1
[88] CCCCCCCC(=O)Nc1c(-c2ccc(F)c(F)c2)nc2ccccn12
[89] O=S(=O)(c1ccc(S(=O)(=O)N(CCO)c2ccccc2)cc1)N1CCCC1
[90] Cc1ccccc1NC(=O)Cn1c2ccccc2c2ncn(Cc3ccccc3)c(=O)c21

Screen / compound no. | 85 | 86 | 87 | 88 | 89 | 90
NPYLR7 agonist | 2 | 14 | 0 | -6 | 11 | 13
NPYLR7 agonist max-min | 17 | 8 | -2 | 2 | 6 | 13

[91] Cc1ccc(C(NC(=O)C2CCN(Cc3ccc4c(c3)OCO4)CC2)c2ccccn2)cc1 (configuration not stated)
[92] C/C=C/CC(=O)N(CC)Cc1ccc(Cl)cc1
[93] CC(C)C1CN(C(=O)c2ccc3[nH]c(=O)c(=O)[nH]c3c2)CCCN1CC1CC1 (configuration not stated)
[94] O=C(NCCC1=CCCCC1)NCc1nnc(-c2ccco2)o1
[95] CC(C)c1c(C(=O)O)cnc2cc(C(C)(C)C)nn12

Screen / compound no. | 91 | 92 | 93 | 94 | 95
NPYLR7 agonist | 6 | -4 | -3 | 2 | 20
NPYLR7 agonist max-min | 7 | -7 | -5 | 2 | 9

Compound profiles, as listed above. Values in the order: NPYLR7 agonist	NPYLR7 agonist max-min
Cc1ccc(C(NC(=O)C2CCN(Cc3ccc4c(c3)OCO4)CC2)c2ccccn2)cc1 (configuration not stated) as listed: 6	7
CC(C)c1c(C(=O)O)cnc2cc(C(C)(C)C)nn12 as listed: 20	9
C/C=C/CC(=O)N(CC)Cc1ccc(Cl)cc1 as listed: -4	-7
CC(C)C1CN(C(=O)c2ccc3[nH]c(=O)c(=O)[nH]c3c2)CCCN1CC1CC1 (configuration not stated) as listed: -3	-5
